GLA inh pH 4.5 = qHTS Assay for Inhibitors of Human alpha-Galactosidase at pH 4.5 | Alpha-galactosidase A (Homo sapiens), P06280 | purified enzyme, 4-MU-alpha-Gal fluorescence, pH 4.5 | activity change, negative = inhibition, % at 105 µM | 230,000 tested, under 10 active | AID 1467, 2008; inconclusive = small, poorly fitted or top-dose-only inhibition, or a rising curve; inactive = flat fitted curve, though single readings scatter; no compound was filed as active;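 also: 0% = full activity with enzyme and -100% = basal without enzyme; dose as in the result columns while the protocol names 77 µM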
miR-21 reporter = qHTS Assay for Modulators of miRNAs and/orActivators of miR-21 | HeLa miR-21 FLuc reporter, luciferase, 48 h | Potency, µM (doses to about 38.3 µM), inactives show at the highest dose reporter change, positive = more light | 340,000 tested, under 10 active | AID 2288, 2010; active = well fitted rising curve with a large enough effect; inconclusive = small, poorly fitted or top-dose-only effect; inactive = no such curve, though single readings can be large or run the other way;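 also: % of control where 0% means no effect; miR-21 action dims this reporter so a rising signal means less miR-21 action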
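Compounds were titrated across several concentrations (up to approximately 40 uM) and incubated 48 hours with HeLa miR-21-FLuc reporter cells (miR-21 target sequence downstream of FLuc, endogenous miR-21). Readout was firefly luciferase luminescence after lytic detection reagent.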
Rango release inh = qHTS Assay for Inhibitors of RanGTP induced Rango (Ran-regulated importin-beta cargo) - Importin beta complex dissociation | Snurportin-1 (Homo sapiens) + GTP-binding nuclear protein Ran (Homo sapiens) + Importin … | Biochemical FRET Rango-importin beta, RanGTP-induced dissociation | Potency, µM (doses to about 46.1 µM), for the others: at the top dose activity change, negative = inhibition | hit rate 0.071% among 340,000 | AID 540253, 2011; active means falling FRET ratio curve, often poorly fitted, with flat reads before Ran was added; inconclusive means other falling curves, or compound fluorescence or quenching; inactive means flat or rising ratio curve;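 also: potency is read from the fitted curve at half-maximal effect; % of control where 0% means no effect; nearly all actives have a fitted effect of over 45% in size; -100% = wells without RanGTP and RCC1; the record marks most hits as doubtful in a second field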
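Two FRET readings bracket the reaction: one 5 min after compound meets Rango–importin beta, another 45 min after RanGTP-RCC1 (0.6 uM Ran, 0.2 uM RCC1, 2 mM GTP) is added. Only the second defines inhibition.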
Rango-impB inh = qHTS Assay for Inhibitors of Rango (Ran-regulated importin-beta cargo) - Importin beta complex formation. Rango CFP/YFP FRET sensor + importin beta, 45 min. hit rate 0.031% among 340,000. Potency, µM (highest dose often 92.2 µM), for the others: at the highest dose inhibition of complex formation; active = rising FRET ratio curve, often small or poorly fitted; inconclusive = mostly compound fluorescence or quenching in the first reads; inactive = flat curves in all reads;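 also: potency is read from the fitted curve at half-maximal effect; 0% = DMSO wells and 100% = buffer wells lacking importin beta; nearly all actives have a fitted effect of over 15% in size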
Target sequence (Q14974 whole entry, looked up): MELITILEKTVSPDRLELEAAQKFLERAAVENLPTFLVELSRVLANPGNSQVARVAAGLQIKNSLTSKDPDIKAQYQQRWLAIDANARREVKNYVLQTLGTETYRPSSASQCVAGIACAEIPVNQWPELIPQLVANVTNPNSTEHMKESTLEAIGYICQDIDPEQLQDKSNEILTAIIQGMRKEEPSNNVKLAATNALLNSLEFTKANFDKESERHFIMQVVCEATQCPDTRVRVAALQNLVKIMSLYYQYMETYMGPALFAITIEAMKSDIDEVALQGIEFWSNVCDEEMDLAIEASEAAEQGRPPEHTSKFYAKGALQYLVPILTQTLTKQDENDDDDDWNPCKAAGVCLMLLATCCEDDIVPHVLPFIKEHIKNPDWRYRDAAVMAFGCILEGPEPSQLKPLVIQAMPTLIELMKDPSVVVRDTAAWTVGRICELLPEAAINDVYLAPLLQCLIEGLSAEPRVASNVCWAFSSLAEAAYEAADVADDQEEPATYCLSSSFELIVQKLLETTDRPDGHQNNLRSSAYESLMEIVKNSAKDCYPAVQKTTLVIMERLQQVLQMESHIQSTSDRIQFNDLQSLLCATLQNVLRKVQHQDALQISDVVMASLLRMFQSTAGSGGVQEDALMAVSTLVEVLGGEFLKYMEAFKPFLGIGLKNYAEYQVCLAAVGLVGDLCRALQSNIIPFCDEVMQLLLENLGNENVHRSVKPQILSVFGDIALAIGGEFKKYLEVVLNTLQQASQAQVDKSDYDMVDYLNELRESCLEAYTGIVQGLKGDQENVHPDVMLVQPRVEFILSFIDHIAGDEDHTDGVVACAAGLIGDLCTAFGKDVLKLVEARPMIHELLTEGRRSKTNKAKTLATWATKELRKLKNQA
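FRET biosensor (snurportin 1 IBB flanked by EYFP and cerulean), 50 nM, with compound 5 min, then 0.125 microM importin beta in PBS, 1 mM DTT, 0.02% Tween-20, 0.1% BSA. CFP/YFP ratio read after 45 min at room temperature; pre-read flags interference.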
* hit, by the source's call; ? = inconclusive; · = no result given; & = joins results of further samples. A portion of the library (hit frequency here may not be typical).

Rango release inh,Rango-impB inh,GLA inh pH 4.5,miR-21 reporter,molecule
-3%,0.5%,·,·,O=C(NCC1CCCN1S(=O)(=O)c1cccs1)c1cccc(Cl)c1 (configuration not stated)
1%,-0.9%,-6,-16%,CCCn1c(=O)n(N)c2ccccc21
?,?,·,·,CC1=Nc2ccc(C)c3nc(C)cc(c23)N1c1ccc(C)cc1
-1%,-0.4%,·,-7%,COc1cccc2c1O/C(=N\O)C(C(=O)Nc1cccc(C)c1C)C2 (configuration not stated)
-16%,-2.5%,5,-1%,CCOc1ccc(C(=O)C[n+]2ccccc2C)cc1
8%,-5.0%,10,-6%,Cc1c(NC(=S)NC(NC(=O)C(C)(C)C)C(Cl)(Cl)Cl)c(=O)n(-c2ccccc2)n1C (configuration not stated)
-2%,-0.2%,·,15%&19%,O=S(=O)(NCc1ccc(F)cc1)c1ccc(-c2cnc(C3CC3)o2)cc1
1%&6%,0.8%&1.9%,-10,-4%,Cc1[nH]nc(N=CC2=C(O)CC(C)(C)CC2=O)c1-c1ccc(Cl)cc1
8%,-4.1%,7,-3%,COc1ccc(S(=O)(=O)NCCC(=O)NCc2ccccc2)cc1
-4%,-1.9%,2,-2%,COc1ccccc1C(CCN(Cc1cccs1)C(C)=O)c1ccco1 (configuration not stated)
-5%,0.9%,-4,0%,Cn1c(CC2Sc3ccccc3NC2=O)nnc1SCC(=O)c1ccc(Cl)cc1 (configuration not stated)
1%,0.5%,7,-12%,CC(C)c1ccc(N2C(=O)/C(=C/N(C)C)SC2=S)cc1
5%,-1.8%,7,-5%,CCC(=O)NCCc1nc2ccccc2[nH]1
15%,-2.2%,-1,-9%,CCn1c(CC(=O)Nc2ccc(C)cc2)nnc1SCC(=O)NCc1ccccc1
5%,0.9%,5,-3%,Cc1ccc(C)c(S(=O)(=O)N(C(=O)c2ccncc2)c2ccc(OC(=O)c3ccncc3)cc2)c1
-3%,-4.4%,·,·,Cn1c(=O)oc2cc(S(=O)(=O)NCC3CCCO3)ccc21 (configuration not stated)
-1%,-1.0%,6,-4%,CC(CNC(=O)CC(C)(C)C)NC(=O)CC(C)(C)C (configuration not stated)
3%,-3.7%,-1,1%,CCOc1ccc(-c2nnn(CC(=O)c3ccc4c(c3)OCCO4)n2)cc1OCC
19%,4.7%,·,-21%,COc1ccc([N+](=O)[O-])cc1C(=O)NCCOc1ccc(Cl)cc1
0%,-7.9%,-23,12%,O=C(CSc1nnc(Cc2ccccc2)n1Cc1ccco1)NC12CC3CC(CC(C3)C1)C2
?,?,?,-1%,CCOc1ccccc1C1C(C(=O)OC)=CN(C)C=C1C(=O)OC
1%,0.4%,-7,7%,CCCc1nc2oc3c(NCCCN(C)C)ncnc3c2c2c1CCCC2
-2%,-0.2%,-12,14%,CCCCOc1ccc(CSC2=NCCN2)cc1[N+](=O)[O-]
?,3.9%,·,·,Cc1cccc(Cc2nc3ccccc3[nH]2)c1
1%,-3.2%,0,-2%,O=C(N/C(=C\c1cccnc1)C(=O)N1CCOCC1)c1cccc(Br)c1
-4%,-3.1%,-9,-4%,Cc1nn(C/C(C#N)=N\O)c(C)[n+]1N
16%,2.1%,3,-15%,Cn1c(CN2CCN(CCO)CC2)c(C#N)c2ccccc21
11%,0.1%,6,0%,COC(=O)c1ccc(NC(=O)COC(=O)C2CC(=O)N(Cc3ccccc3)C2)cc1 (configuration not stated)
-2%,-0.1%,6,0%,Cc1cc(=O)oc(C)c1C(=O)NCc1c(F)cc(F)cc1F
9%,-1.5%,·,·,COc1cccc(CC(=O)OCC(=O)N(C)CC(=O)Nc2ccccc2Cl)c1
-4%,0.1%,·,-1%,CN(C(=O)CCNC(=O)Cn1cnc2ccccc2c1=O)c1ccc(Br)cc1
-1%,1.1%,5,-6%,COc1ccc(C(NC(=O)C(C)C)c2c(O)ccc3ccccc23)cc1OC (configuration not stated)
-2%,8.5%,4,1%,Cc1c(NC(=O)CSc2ccccc2Cl)c(=O)n(-c2ccccc2)n1C
-11%,-0.7%,14,-4%,CCOc1cc(NC(=O)C2CCCCC2)c(OCC)cc1NC(=O)c1ccccn1
13%,-0.1%,-1,-2%,Fc1ccc(C2N(c3ccccc3)C(=S)N3CCCN23)cc1 (configuration not stated)
-23%,-4.4%,-1,?,Cc1ccc(C)c(-n2nnnc2Sc2nnnn2-c2ccccc2)c1
-3%,6.2%,-8,-6%,COC(=O)CSc1nnc(-c2ccccc2OC)o1
·,·,-3,-6%,CC1(N2CCOCC2)CC2(O)C(=[N+]1[O-])CCc1nonc12 (configuration not stated)
0%,5.6%,·,-2%,COc1ccc(-n2nc3c(c2NC(=O)COc2cccc(OC)c2)CS(=O)(=O)C3)cc1
-10%,-1.2%,-1,-10%,CCOC(=O)N1CCN(CC(=O)N2CCC(C(N)=O)CC2)CC1
1%,4.3%,-22,-4%,Cc1ccc(-n2nnnc2SCC(=O)NNC(=O)c2ccco2)c(C)c1
-16%,0.1%,-5,4%,Cn1c(=O)c2c([nH]c(=O)n2C)n(C)c1=O
9%,1.6%,-4,-7%,CCOC(=O)c1sc(-c2ccccc2)cc1NC(=O)Nc1ccc([N+](=O)[O-])cc1
-9%,5.2%,-13,8%,Cc1cc(S(=O)(=O)N2CCN(c3c(C)cccc3C)CC2)ccc1F
-1%,-4.8%,·,29%,NC(=O)c1nsc(C(=O)N(c2ccccc2F)C(C(=O)NCc2ccccc2)c2ccc(O)cc2)c1N (configuration not stated)
14%,-1.4%,-1,-1%,Cc1ccc(NC(=O)c2ccccc2-c2ccccc2C(=O)O)cc1C
3%,-4.2%,3,11%,O=C(Nc1cc(Sc2ccccn2)cc([N+](=O)[O-])c1)c1ccc(Cl)cc1
1%,0.0%,·,9%,COc1cc(C(=O)Nc2sc3c(c2C(=O)O)CCC3)cc(OC)c1OC
-2%,-0.2%,·,·,CC1Nc2ncnc(N3CCN(c4ccccc4)CC3)c2N(Cc2ccccc2)C1=O (configuration not stated)
-10%,0.3%,·,·,Cc1ccc(-n2ncc3c2CCCC3NC(=O)CCn2ccnc2C)cc1C (configuration not stated)

Continued.
Rango release inh,Rango-impB inh,GLA inh pH 4.5,miR-21 reporter,molecule
25%,-0.8%,·,0%,CCn1cc(C(=O)NCCCO)c(=O)c2cc(F)c(N3CCN(C)CC3)cc21
1%,-1.0%,·,·,CC1CCN(C(=O)c2ncn(C)c2C(=O)N2CCC(C)CC2)CC1
-8%,-1.8%,·,4%,Cc1cc(NC(=O)CSc2nc3cc(C)c(C)cc3cc2C)no1
0%,5.5%,-16,12%,CC(C)Cc1ccc(C(C)C(=O)OCC(=O)c2c[nH]c3ccccc23)cc1 (configuration not stated)
1%,?,-1,-1%,O=C(CSCCOc1ccccc1)NCc1ccncc1
-16%,4.1%,2,-8%,CCOC(=O)c1cnn(CCOC(=O)c2ccccc2)c1NC(=O)c1ccccc1
0%,-1.5%,2,-51%,CCOC(=O)N1CCN(C(=O)CSCc2ccccc2)CC1
1%,1.8%,·,2%,CCOc1ccccc1CN1CCN(Cc2ccc3cc(F)ccc3n2)CC1CCO (configuration not stated)
-14%,-0.5%,-12,-11%,Cc1ccc(NC(=O)CSc2n[nH]c(C)c2[N+](=O)[O-])cc1
18%,-0.3%,-10,-26%,O=C(CSc1ncn(-c2ccccc2)n1)Nc1nc(-c2ccccc2)cs1
25%,8.8%,11,-8%,O=C(NCCN1CCOCC1)c1ccc(=O)n(Cc2ccc(Cl)cc2)c1
3%,-0.7%,9,2%,COc1cc(C(=O)NCC2CCCO2)ccc1OCc1c(C)noc1C (configuration not stated)
21%,-1.0%,·,·,NC(=O)c1ccc(Cn2c(C(=O)c3ccc(Cl)cc3)c3ccccc3[n+]2[O-])cc1
23%,?,11,-2%,CCCCN(C(=O)CSc1nnc(-c2ccco2)o1)c1c(N)n(Cc2ccccc2)c(=O)[nH]c1=O
31%,6.9%,5,-3%,Cc1ccc(NC(=O)CCNS(=O)(=O)c2ccccc2)c(C(=O)c2ccccc2)c1
9%,-2.7%,-7,-44%,O=C(OCc1nnc(-c2ccc(Cl)cc2)o1)C12CC3CC(CC(O)(C3)C1)C2
?,?,-5,-27%,CN1CCc2nc(NC(=O)c3cccc(OC(F)F)c3)sc2C1
7%,1.4%,1,?,CCN(Cc1ccc(OC)c(F)c1)C(=O)CCl
-16%,-0.2%,·,-42%,O=C(CSCc1c(F)cccc1Cl)NCCc1ccccc1
-11%,9.2%,·,0%,Cc1c(C(=O)O)nn(-c2cccc(C(F)(F)F)c2)c(=O)c1C#N
-12%,0.4%,·,0%,CC1CC(C)CN(C(=O)c2ccc(S(=O)(=O)N3CCCCC3)cc2)C1 (configuration not stated)
4%,-6.0%,?,23%,CN(C(=O)c1cccc(N2C(=O)C3CC=CCC3C2=O)c1)C1CCCCC1 (configuration not stated)
?,-0.2%,·,-2%,CCOC(=O)c1c(S(=O)(=O)NCC(=O)Nc2ccc(C)cc2)c(C)n(C)c1C
7%,0.1%,-1,1%,COc1cccc(-c2nc(CS(=O)CC(=O)NCc3ccccc3)c(C)o2)c1 (configuration not stated)
?,?,·,7%,N#C/C(=C\c1c(Oc2ccc(Cl)cc2)nc2ccccn2c1=O)C(=O)NC1CCS(=O)(=O)C1 (configuration not stated)
-2%,3.8%,·,·,COc1ccc(CNCCS(=O)(=O)NN2CCOCC2)cc1
0%,0.3%,·,-3%,CC(CC(=O)Nc1ccc(S(=O)(=O)Nc2ncccn2)cc1)c1ccccc1 (configuration not stated)
-4%,-0.3%,-8,-27%,O=C(Nc1ccc(Cl)cn1)c1cc2ccccc2o1
3%,-1.4%,1,25%,CCOC(=O)c1cnc(-n2nc(C)cc2C)nc1NCc1ccccc1
-11%,-1.9%,·,·,CCOc1cc(N2CCOCC2)c(OCC)cc1NC(=O)c1ccc(F)c(S(=O)(=O)N2CCOCC2)c1

Filtered by structure: those above with an NH in an aromatic ring (7)
Rango release inh,Rango-impB inh,GLA inh pH 4.5,miR-21 reporter,molecule
1%&6%,0.8%&1.9%,-10,-4%,Cc1[nH]nc(N=CC2=C(O)CC(C)(C)CC2=O)c1-c1ccc(Cl)cc1
5%,-1.8%,7,-5%,CCC(=O)NCCc1nc2ccccc2[nH]1
?,3.9%,·,·,Cc1cccc(Cc2nc3ccccc3[nH]2)c1
-16%,0.1%,-5,4%,Cn1c(=O)c2c([nH]c(=O)n2C)n(C)c1=O
0%,5.5%,-16,12%,CC(C)Cc1ccc(C(C)C(=O)OCC(=O)c2c[nH]c3ccccc23)cc1 (configuration not stated)
-14%,-0.5%,-12,-11%,Cc1ccc(NC(=O)CSc2n[nH]c(C)c2[N+](=O)[O-])cc1
23%,?,11,-2%,CCCCN(C(=O)CSc1nnc(-c2ccco2)o1)c1c(N)n(Cc2ccccc2)c(=O)[nH]c1=O

Additional compounds follow:
Rango release inh,Rango-impB inh,GLA inh pH 4.5,miR-21 reporter,molecule
3%,-0.2%,-2,-4%,COc1cc(/C=C/CN2CCN(Cc3ccc(C)o3)C(CCO)C2)ccc1O (configuration not stated)
3%,2.4%,2,-27%,CN(C(=O)CCc1nc2ccccc2s1)c1ccccc1
-2%,-0.4%,?,-1%,COc1ccc(N/C=C2\C(=O)CCc3c2oc2cc(Cl)c(O)c(Cl)c32)cc1
-10%,4.8%,·,-1%,Cc1ccc(-c2c(C(=O)O)c3ccccc3[nH]c2=O)cc1
-6%,4.4%,1,-6%,CC(C)OC(=O)/C(=C\C=C\c1ccccc1)NC(=O)c1ccccc1
?,-0.3%,-12,-1%,COc1cc(/C=N/NC(=O)c2ccc(CSc3nncn3C)cc2)cc(OC)c1O
24%,-3.2%,2,-3%,O=C(O)C1CCCN1S(=O)(=O)c1cc(Cl)ccc1Cl (configuration not stated)
2%,-0.2%,·,1%,COc1ccc(NC(=O)NNC(=O)COc2ccc3cc(Br)ccc3c2)c(OC)c1

Screens as filed in PubChem BioAssay.
